High-throughput results deposited in PubChem BioAssay by National Center for Advancing Translational Sciences (NCATS).
IMPase Li cell: qHTS Assay for Identifying the Cell-Membrane Permeable IMPase Inhibitors: Potentiation with Lithium; CHO-M1 cells, IP1 TR-FRET (IP-One), carbachol + lithium; Potency, µM (top dose mostly 59.4 µM), for inactives: at the highest dose activity, negative = IMPase inhibition, usual class: inhibitors; hit rate 0.35% among 210,000;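 note: IP1 builds up when IMPase is blocked and the TR-FRET signal falls; potency is the fitted concentration of half-maximal effect; plate controls were basal vehicle for no effect and high inhibitor control for full effect; nearly all actives have a fitted effect of over 50% in size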
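Readout is a homogeneous TR-FRET IP1 immunoassay (Ex 320, Em 665 and 620), where raised cytosolic IP1 lowers signal. Cells were CHO-M1 treated 30 min at 37C with test compounds plus a little lithium; AC50 values came from Hill-equation fitting.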
CBFb RUNX1 block: qHTS Assay for Compounds Blocking the Interaction Between CBF-beta and RUNX1 for the Treatment of Acute Myeloid Leukemia. Potency, µM (titrated, usually from 59.8 µM), for inactives: top-dose activity, negative = inhibition, usual class: inhibitors. AID 1477, 2009. AlphaScreen CBFb-His/RUNX1-biotin binding, biochemical. 230,000 tested, under 10 active; note: % of control where 0% means no effect
Target sequence (Q01196 whole entry, looked up): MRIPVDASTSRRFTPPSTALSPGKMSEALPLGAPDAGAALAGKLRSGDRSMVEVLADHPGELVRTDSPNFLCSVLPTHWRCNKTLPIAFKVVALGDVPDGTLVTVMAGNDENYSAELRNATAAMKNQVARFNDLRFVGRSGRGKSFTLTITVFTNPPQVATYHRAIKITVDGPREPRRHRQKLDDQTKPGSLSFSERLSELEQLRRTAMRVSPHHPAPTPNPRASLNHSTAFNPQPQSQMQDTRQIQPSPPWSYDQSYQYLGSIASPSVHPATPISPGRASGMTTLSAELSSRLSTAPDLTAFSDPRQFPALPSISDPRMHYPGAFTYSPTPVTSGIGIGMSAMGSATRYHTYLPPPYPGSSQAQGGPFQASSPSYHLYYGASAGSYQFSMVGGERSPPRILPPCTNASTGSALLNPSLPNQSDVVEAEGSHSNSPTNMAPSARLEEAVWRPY
Target sequence (Q13951 whole entry, looked up): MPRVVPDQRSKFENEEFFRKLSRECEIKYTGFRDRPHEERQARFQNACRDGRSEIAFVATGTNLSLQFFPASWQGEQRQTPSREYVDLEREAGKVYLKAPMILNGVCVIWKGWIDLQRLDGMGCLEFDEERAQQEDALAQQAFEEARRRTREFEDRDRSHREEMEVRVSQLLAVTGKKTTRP
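Read-out: AlphaScreen. Format: His-CBF-beta with biotinylated RUNX1 (30 nM each) preincubated 20 min, compound 15 min, Ni-chelate plus streptavidin beads 90 min; room temperature throughout.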
Epigenetic reg: Quantitative High-Throughput Screen for Regulators of Epigenetic Control. Potency, µM (doses to about 53.9 µM), inactives show top-dose GFP activation, most hits filed as activators. hit rate 0.2% among 280,000. murine LDR cells, GFP reporter derepression, 30 h; note: potency is the fitted concentration of half-maximal effect; % of control where 0% means no effect; nearly all actives have a fitted effect of over 60% in size
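Murine LDR cells carrying a silenced, genomically integrated CMV-driven GFP reporter were exposed to compound for 30 hours at 37 C. After PBS washes, GFP-positive cells (20–120 um objects) were counted by laser-scanning microplate cytometry.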
HTT aggregate: qHTS Multiplex Assay to Identify Dual Action Probes in a Cell Model of Huntington: Aggregate Formation (GFP); Potency, µM (highest dose often 46.1 µM), for the others: top-dose activity change, negative = inhibition, usual class: inhibitors; hit rate 1.1% among 220,000; PC12 HttQ103-GFP aggregates, Acumen cytometry, 40 h; note: potency is the fitted concentration of half-maximal effect; % is set by controls: 0 for no effect and ±100 for the full control effect; nearly all actives have a fitted effect of over 60% in size
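Ecdysone-promoter PC12 model expressing HTT exon 1 Q103 fused to GFP, induced by tebufenozide at 100 nM final. Compounds titrated; aggregates sized 1–25 µm scored on a 488 nm laser cytometer.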
Lamin A splicing: qHTS Assay for Modulators of Lamin A Splicing | hit rate 0.01% among 200,000 | HeLa LMNA splicing GFP/RFP minigene ratio, 48 h | Potency, µM (titrated, usually from 46.1 µM), without a hit: at the highest dose ratio change, negative = inhibition, hits mostly inhibitors | AID 1487, 2009; active = well fitted inhibition curve with a large enough effect in the signal ratio, with a control signal flat, not every such curve was filed as active; inconclusive = small, poorly fitted or top-dose-only effect, or effect the other way, or a change in a side signal; the % refers to the signal ratio; note: potency is the fitted concentration of half-maximal effect; % is set by controls: 0 for no effect and ±100 for the full control effect
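S3 HeLa cells stably expressing lamin A-EGFP splicing minigene plus DsRed2, 600 cells/well, 48 h compound exposure at 37C. Laser-scanning cytometry; analysed as GFP (500-530 nm)/RFP (575-640 nm) total intensity ratio; 0.5% DMSO vehicle.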
KinaseGlo FLuc: Counterscreen for Luciferase (Kinase-Glo TM) Inhibition; Luciferin 4-monooxygenase (Photuris pensylvanica), Q27757; Kinase-Glo luciferase, ATP luminescence, 8 min; Potency, µM (top dose mostly 38.3 µM), inactives show at the top dose activity change, negative = inhibition, most hits filed as inhibitors; hit rate 0.28% among 200,000; note: potency is the fitted concentration of half-maximal effect; % is set by controls: 0 for no effect and ±100 for the full control effect; nearly all actives have a fitted effect of over 60% in size
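Substrate mix (final 50 mM imidazole pH 7.2, 50 mM KCl, 7 mM MgCl2, 10 uM ATP, 0.01% Tween 20, 0.05% BSA) plus pin-tool compound, then Kinase-Glo detection mix; 8 min ambient, luminescence read.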
Numbers without * were called inactive; ? = inconclusive; . = not tested or not shown; [ ] = another dose, or the depositor's remark. Unless noted, calls come from the whole dose curve; as a rule, active = well fitted curve in the direction sought with a large enough effect; inconclusive = small, poorly fitted or top-dose-only effect, or another doubt; inactive = no such curve, though single readings can be large; an effect the other way counts as inactive or inconclusive.

Molecule | IMPase Li cell | CBFb RUNX1 block | Epigenetic reg | HTT aggregate | Lamin A splicing | KinaseGlo FLuc
COC(=O)CSc1nc(C)cc(C)c1C#N | 0% | 1% | -0.6% | -2%[9.22 µM] | -4%[46 µM] | 1%
COc1nccnc1NS(=O)(=O)c1ccc(NC(=S)NC(=O)/C=C/c2ccc(F)cc2)cc1 | -15% | -2% | 2.5% | -7% | -15% | -1%
CC1=C(C(=O)OC2CCCCC2)C(c2ccco2)C2=C(CC(C)(C)CC2=O)N1 (stereo not drawn) | 16%[38.3 µM] | -2% | -2.6% | -16% | 14% | 0%
O=S(=O)(Nc1ccc2c(c1)OCCO2)c1ccc2oc3ccccc3c2c1 | 28%[38.3 µM] | 7% | 1.1% | 11µM* | ? | 2%
CCOc1cccc(C(=O)Nc2cccc(-c3nnc(-c4ccc(C)cc4)o3)c2)c1 | -2%[38.3 µM] | 6% | 3.2% | -9% | -8% | 0%
CCOc1cccc(C(=O)Nc2ccc3oc(Cc4ccc(Cl)cc4)nc3c2)c1 | 26%[38.3 µM] | 6% | 0.9% | -32% | ? | -1%
O=C(CCc1ccccc1)NC(NC(=S)Nc1ccc(Cl)cc1)C(Cl)(Cl)Cl (stereo not drawn) | 25%[38.3 µM] | -2% | 3.6% | ? | -1% | 0%
COc1cccc(C(=O)COc2cccc(NC(=O)c3ccco3)c2)c1 | 9% | 10% | 5.3% | -8%[9.22 µM] | 11%[46 µM] | -10%
COc1cccc(C2C(C(=O)Nc3cccnc3)=C(C)Nc3nnnn32)c1OC (stereo not drawn) | -12%[38.3 µM] | 4% | -0.2% | 22% | -7% | 0%
CNC(=O)c1[nH]cnc1C(=O)N[C@@H](C)C(=O)OCc1ccccc1 | . | 26% | 12% | -22%[9.22 µM] | . | .
COc1cc(/C=N/Nc2nc(Nc3ccc(C)cc3)nc(-n3nc(C)cc3C)n2)cc(OC)c1OC | 11%[38.3 µM] | 13% | 1.5% | -19% | 15% | -3%
CC(=O)Nc1ccc(S(=O)(=O)Nc2nc3ccccc3nc2Nc2cccc(O)c2)cc1 | . | 9% | -1.0% | -7%[9.22 µM] | . | .
COc1cccc(OCC(=O)NNC(=O)c2cccs2)c1 | 0%[38.3 µM] | 3% | 1.0% | 6% | 5% | -1%
c1cncc(CNc2cccc(-c3nc4ccccc4[nH]3)c2)c1 | 13% | 5% | -0.9% | ? | ? | -21%
CC(NS(=O)(=O)c1ccc(OCC(=O)N2CCOCC2)c(Cl)c1)c1ccccc1 (stereo not drawn) | 33%[38.3 µM] | 0% | 0.0% | -2% | -5% | 3%
CCN(CC)S(=O)(=O)c1ccc(N2CCOCC2)c(NCC(=O)Nc2ccc(F)cc2)c1 | -1% | 4% | -0.6% | 13%[9.22 µM] | ? | 0%
Cc1ccc(CNC(=O)c2cn(C3CCCC3)c(=O)c3c2c2ccccc2n3C)o1 | 10%[38.3 µM] | -18% | 8.1% | 25% | 8% | 11%
CC(C)Nc1ncnc2c1cnn2-c1ccccc1 | 21% | 0% | -0.1% | -1% | ? | -3%
CCCN(CCC)CCSc1nc(O)c(C(C)C)c(=O)[nH]1 | 8%[38.3 µM] | -3% | 2.2% | 23% | 24% | 1%
COc1ccc2[nH]c(C)c(C(=O)CN3CCOCC3)c2c1 | 36%[activator][38.3 µM] | 13% | 2.0% | -8% | -6% | -2%
N#Cc1c(SCC(=O)O)nc(N2CCCCC2)c2c1CCCC2 | -22%[38.3 µM] | 2% | -1.1% | 21% | 17% | 1%
CCOC(=O)N1CCN(C(=O)c2cc(-c3ccc(OCC)cc3)nc3ccccc23)CC1 | 2%[38.3 µM] | 2% | -1.0% | -15% | ? | -9%
Cc1cccn2c(=O)c3cc(S(=O)(=O)c4ccc(F)cc4)c(=N)n(Cc4ccco4)c3nc12 | . | 6% | 2.4% | 4%[9.22 µM] | . | .
C=CCn1c(SCC(=O)Nc2cccnc2Cl)nnc1-c1ccccc1F | 2% | -6% | -3.0% | -16% | ? | 1%
O=c1cc(O)c2sc3nc(-c4cccnc4)cc(C(F)(F)F)c3c2[nH]1 | -15% | -3% | 1.9% | 1% | ? | 3%
CCCCN1C2=C(C(=O)CC(C)(C)C2)C(c2ccccc2)C2=C1c1ccccc1C2=O (stereo not drawn) | 37%[activator][38.3 µM] | -4% | -0.1% | -19% | 11% | -5%
O=S(=O)(c1ccccc1)c1cnc(-c2ccccc2)nc1N1CCCCC1 | 14% | ? | -0.5% | ? | 28%[46 µM] | 0%
O=C(NC(=S)Nc1ncccn1)c1ccc(Cl)cc1Cl | 1% | 0% | -0.1% | -23% | . | 2%
CC(C)c1c(O)nc(SCCN(C)C)[nH]c1=O | 1%[38.3 µM] | -1% | 0.1% | 11% | 11% | -3%
COc1ccc(NC(=O)c2sc(N)nc2-c2ccccc2)cc1 | -3% | 10% | 0.9% | 6% | -4%[9.22 µM] | -1%
CCNc1nc(C23CC4CC(CC(C4)C2)C3)cs1 | 0% | -4% | 2.8% | -5% | . | 0%
O=C(NCc1ccccc1)c1ccc(COCC(F)(F)F)o1 | 19%[38.3 µM] | 9% | 2.5% | 2% | -3% | 5%
CCN(CC)C(=S)NC(=O)c1ccc(Cl)cc1Cl | 48%[activator][38.3 µM] | 2% | 0.0% | -6% | -1% | 0%
CC(C)NC(=O)C1CCN(C2CCN(CC3CC=CCC3)CC2)CC1 (stereo not drawn) | 19% | 3% | 3.0% | -10%[9.22 µM] | 21%[46 µM] | 1%
Cc1ccc(Cl)cc1N1CCN(C(=O)c2cccc3c(=O)c(C)c(-c4ccccc4)oc23)CC1 | 15% | -3% | 1.0% | 24% | ? | 0%
CN(C)c1nc(Nn2cnnc2)nc(N(C)C)n1 | . | 19% | 3.1% | 0%[9.22 µM] | . | .
Cc1csc2ncc(C(=O)Nc3cccc(C(F)(F)F)c3)c(=O)n12 | 14%[38.3 µM] | 9% | 0.0% | 2% | -5% | 1%
CC(=O)Oc1ccc2ccccc2c1C(NC(=O)Cc1ccccc1)c1ccccc1 (stereo not drawn) | 3% | 9% | -0.9% | ? | ? | 6%
C#CCSc1nnc(CSc2nc3ccccc3s2)n1-c1ccccc1 | 36%[38.3 µM] | -3% | 0.0% | ? | -24% | -3%
O=C(O)CN1C(=O)CC(Cc2ccccc2)C1=O (stereo not drawn) | 1%[38.3 µM] | -7% | -1.0% | -2% | 2% | -6%
CCOC(=O)CSc1nnc2n(C3CCCCC3)c(=O)c3c4c(sc3n12)CCCC4 | 25%[38.3 µM] | -5% | -0.9% | -2% | ? | -4%
COc1ccc(C2Nc3ccccc3C(=O)N2Cc2ccccc2)cc1Cn1nnc2ccccc21 (stereo not drawn) | . | -1% | 1.8% | 22% | 7% | .
Cc1nc2cc(F)ccc2n1C1CCN(C(=O)c2c(F)cccc2F)CC1 | 21% | -9% | 0.9% | ? | -2%[9.22 µM] | -1%
COn1c(SCc2ccc(C)cc2C)nc2ccccc2c1=O | 4%[38.3 µM] | 14% | 0.5% | -32% | 13% | 1%
CCOC(=O)c1c(NC(=O)CSc2ncnc3[nH]ncc23)sc2c1CCC(C)C2 (stereo not drawn) | 13% | -8% | -0.1% | -5% | . | -2%
CC1(OC(=O)CCc2ccccc2)C(=O)C=C2C=C3CCCN3C=C2C1=O (stereo not drawn) | 10% | ? | 1.6% | 37%[9.22 µM] | 12%[9.22 µM] | -11%[7.66 µM]
CCOC(=O)c1c(NC(=O)C(C)NCc2ccco2)sc2c1CCC(C)C2 (stereo not drawn) | 31%[38.3 µM] | 2% | 0.5% | -14% | ? | 0%
COCCCNc1nc2ccccc2nc1NS(=O)(=O)c1ccc(C)c(C)c1 | . | 20% | -0.5% | -4%[9.22 µM] | . | .
Clc1ccc(CN(Cc2ccccc2)C(c2cccs2)c2nnnn2C2CCCC2)cc1 (stereo not drawn) | 1%[38.3 µM] | 2% | -1.6% | -16% | ? | 0%
COc1cnn(-c2ccc(C)cc2)c(=O)c1SCc1ccccc1 | . | 5% | -1.9% | 2% | 10% | .

Following part
Molecule | IMPase Li cell | CBFb RUNX1 block | Epigenetic reg | HTT aggregate | Lamin A splicing | KinaseGlo FLuc
Cc1sc2ncn(CC(=O)NCCCC(=O)N3CCN(c4ncccn4)CC3)c(=O)c2c1C | 2%[38.3 µM] | 7% | -1.5% | ? | 9% | -7%
Cc1cc(C(C)(C)C)oc1C(=O)N(CC(=O)NC1CCCC1)c1c(C)cccc1C | 13% | 13% | 0.1% | ? | ? | 1%
Cc1noc(C)c1CSc1nc2ccccc2c(=O)n1-c1ccccc1 | 6%[38.3 µM] | -8% | 0.1% | 5% | -5% | 0%
Cc1ccc(C)n1-c1ccc(-c2nnc3n2CCCCC3)s1 | 13µM* | 2% | 3.3% | 7% | ? | -6%
COc1ccc(C(=O)NCc2nnc(SCC(=O)N3CCCCC3)o2)cc1 | 4% | 25% | -2.4% | -10% | ? | -3%
Cc1ccc(-c2nnc(-c3cccc(NC(=O)c4cccs4)c3)o2)cc1 | 14%[38.3 µM] | -6% | 2.3% | 2% | 0% | 2%
Cc1ccc(OCCCCNC2CCCC(C)C2C)c(C)c1 (stereo not drawn) | 27% | -4% | 2.6% | -5%[9.22 µM] | 15%[46 µM] | -2%

Arranged by length of the SMILES (smallest number first): some entries from above
Molecule | IMPase Li cell | CBFb RUNX1 block | Epigenetic reg | HTT aggregate | Lamin A splicing | KinaseGlo FLuc
Cc1ccc(OCCCCNC2CCCC(C)C2C)c(C)c1 (stereo not drawn) | 27% | -4% | 2.6% | -5%[9.22 µM] | 15%[46 µM] | -2%
Cc1ccc(C)n1-c1ccc(-c2nnc3n2CCCCC3)s1 | 13µM* | 2% | 3.3% | 7% | ? | -6%
Cc1noc(C)c1CSc1nc2ccccc2c(=O)n1-c1ccccc1 | 6%[38.3 µM] | -8% | 0.1% | 5% | -5% | 0%
Cc1ccc(-c2nnc(-c3cccc(NC(=O)c4cccs4)c3)o2)cc1 | 14%[38.3 µM] | -6% | 2.3% | 2% | 0% | 2%
Clc1ccc(CN(Cc2ccccc2)C(c2cccs2)c2nnnn2C2CCCC2)cc1 (stereo not drawn) | 1%[38.3 µM] | 2% | -1.6% | -16% | ? | 0%
Cc1sc2ncn(CC(=O)NCCCC(=O)N3CCN(c4ncccn4)CC3)c(=O)c2c1C | 2%[38.3 µM] | 7% | -1.5% | ? | 9% | -7%

Some of the compounds tested; rates above refer to the full screens.
